# RecA splice inh: Mtb RecA intein splicing inhibitors, primary screen, biochemical, fluorescence, HTS | 0.75% of 290,000 active | cell-free RecA intein splicing | inhibition, %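 (about 9 µM by stock and volumes)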; in the data active = inhibition above about 30%; inconclusive = no clear call, values can overlap the other calls;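 also: 0% = vehicle wells and 100% = reference inhibitor control wells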
# Target sequence (P9WHJ3 whole entry, looked up, canonical isoform): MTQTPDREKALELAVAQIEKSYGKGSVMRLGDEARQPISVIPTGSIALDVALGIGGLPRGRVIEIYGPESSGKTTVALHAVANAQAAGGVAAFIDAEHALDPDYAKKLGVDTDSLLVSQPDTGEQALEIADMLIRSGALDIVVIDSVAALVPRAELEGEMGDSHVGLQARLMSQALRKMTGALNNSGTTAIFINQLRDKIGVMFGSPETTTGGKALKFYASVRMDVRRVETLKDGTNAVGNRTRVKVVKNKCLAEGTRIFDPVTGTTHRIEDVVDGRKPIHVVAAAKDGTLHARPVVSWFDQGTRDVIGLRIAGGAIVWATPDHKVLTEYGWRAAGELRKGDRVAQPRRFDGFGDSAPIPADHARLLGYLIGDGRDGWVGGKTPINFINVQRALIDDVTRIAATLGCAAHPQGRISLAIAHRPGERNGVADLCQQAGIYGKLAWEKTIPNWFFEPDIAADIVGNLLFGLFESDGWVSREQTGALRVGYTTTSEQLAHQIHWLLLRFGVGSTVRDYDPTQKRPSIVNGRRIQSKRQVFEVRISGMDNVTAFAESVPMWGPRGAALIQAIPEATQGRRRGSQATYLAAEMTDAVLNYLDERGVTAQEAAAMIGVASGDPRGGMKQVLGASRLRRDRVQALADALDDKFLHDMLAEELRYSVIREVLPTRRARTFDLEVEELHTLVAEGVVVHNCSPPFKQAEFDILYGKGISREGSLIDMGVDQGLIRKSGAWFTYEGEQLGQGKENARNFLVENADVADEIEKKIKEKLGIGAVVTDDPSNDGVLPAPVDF
# Arbovirus inh: antivirals against arbovirus infection, primary screen, cell-based, full library, 10K replicate subset | arbovirus infection cell-based antiviral screen | inhibition, % at 10 µM | 0.37% of 200,000 active;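 active = inhibition from about 30%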;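 also: bluetongue infection of BSR cells; cell survival read as ATP light after 72 h; 0% = infected wells without compound and 100% = uninfected wells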
# YopH PTP inh: YopH tyrosine phosphatase inhibitors, primary screen, biochemical, fluorescence Ex485/Em525; YopH tyrosine phosphatase [Yersinia enterocolitica]; inhibition, %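 (about 10 µM by stock and volumes)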; 0.16% of 140,000 active;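 active = inhibition of 50% or more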;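 also: controls were vehicle for no effect and minimum signal wells for full effect; inactives centre near -20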
# Mtb growth: M. tuberculosis H37Rv growth inhibitors, H37Rv strain (AID 1626); M. tuberculosis H37Rv growth inhibition; higher % means a stronger effect; inhibition, % at 10 µM; hits with a dose series show IC50 in µM; 0.95% of 220,000 active;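 active = confirmed in a dose series; inconclusive = inhibition above 80% but not taken into the dose series; inactive = below 80% or under 30% at every dose of the series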;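 also: bacteria incubated seven days before Alamar blue readout; 0% = bacteria only wells and 100% = bacteria with antibiotic wells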
# Mtb bLac sens: beta-lactam sensitization of Mtb H37Rv, H37Rv; inhibition, % at 25 µM; 0.27% of 330,000 active; AID 434955, 2010; M. tuberculosis H37Rv growth with meropenem, percent inhibition; hits of this screen are not shown here;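 active = about 74% or more and at least 40 points above the plate without the antibiotic, then above 30% in a dose series; inconclusive = first-round hits that could not be retested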;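 also: growth measured after seven days incubation then overnight dye step; 0% = bacteria only wells and 100% = bacteria with antibiotic; twin plates without the antibiotic show which effects depend on it; some results filed as inactive read as strong as hits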
# Arbovirus inh repeat: second read-out of Arbovirus inh, no call of its own (marks repeat the call); inhibition, %; measured here: 10K subset replicate screen; many hits read low in the repeat;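 first of two repeat runs on a subset; 0% = infected and 100% = uninfected wells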
# Starred values were filed as active, the others as inactive; u = inconclusive; x = not tested or not shown. A portion of the library (hit frequency here may not be typical).
SMILES,RecA splice inh,Arbovirus inh,YopH PTP inh,Mtb growth,Mtb bLac sens,others
Cc1ccc(C(=O)COC(=O)C2CC(=O)N(c3nc(-c4ccccc4)cs3)C2)cc1 (centres undefined),2.1,7,-25,8%,51,
COc1ccc(-n2nc(N)c(C(N)=O)n2)cc1,-8.2,19,x,7%,-5,
CCSc1cc(C2C(C#N)=C(N)Oc3n[nH]c(C)c32)c(C)o1 (centres undefined),77*,-7,-9,-5%,-1,
COc1ccccc1NC(=O)OCC#CCOC(=O)Nc1ccccc1OC,-1.5,x,x,2%,-1,
O=C(Oc1ccc2ccccc2c1Br)N1CCCCCC1,19,6,-34,5%,13,
COc1cc(-c2nc3ccccn3c2/N=C/c2cc(OC)c(OC)c(OC)c2)ccc1O,-111,x,-31,5%,12,
O=C1c2oc3ccccc3c(=O)c2C(c2cccnc2)N1Cc1ccco1 (centres undefined),-0.3,3,-22,-7%,0,
COc1ccc(C)cc1NC(=O)CN1CCN(c2ccccc2F)CC1,x,2,-6,7%,96,
NC(=O)c1c(NC(NC(=O)c2ccco2)C(=O)c2ccc(Cl)cc2)sc2c1CCCC2 (centres undefined),1.3,11,-22,-5%,-2,
CC1(C)CC(=O)N(c2ccc(Cl)c(Cl)c2)C(=O)C1,3.1,x,x,x,-12,
Cc1ccc(-c2nnc(-c3cc(C)on3)o2)cc1,0.2,x,x,1%,8,
CCC1(CC)N([O-])C(C)=C(c2ccccc2)[N+]1=O,1.5,6,-26,3%,20,

# 5 structures already listed, arranged by count of non-hydrogen atoms, falling:
SMILES,RecA splice inh,Arbovirus inh,YopH PTP inh,Mtb growth,Mtb bLac sens,others
COc1cc(-c2nc3ccccn3c2/N=C/c2cc(OC)c(OC)c(OC)c2)ccc1O,-111,x,-31,5%,12,
COc1ccccc1NC(=O)OCC#CCOC(=O)Nc1ccccc1OC,-1.5,x,x,2%,-1,
CCSc1cc(C2C(C#N)=C(N)Oc3n[nH]c(C)c32)c(C)o1 (centres undefined),77*,-7,-9,-5%,-1,
O=C(Oc1ccc2ccccc2c1Br)N1CCCCCC1,19,6,-34,5%,13,
Cc1ccc(-c2nnc(-c3cc(C)on3)o2)cc1,0.2,x,x,1%,8,

# The results go on.
SMILES,RecA splice inh,Arbovirus inh,YopH PTP inh,Mtb growth,Mtb bLac sens,others
COc1ccccc1N1CCN(C(=O)C2CCN(C(=O)c3ccccc3Cl)CC2)CC1,-0.1,x,x,x,4,
O=C(NCc1ccccc1)C(c1ccc(F)cc1)N(Cc1cccs1)C(=O)c1cnccn1 (centres undefined),0.1,-2,-28,2%,-3,
CCN(CC)C(=O)CCSc1nnc(-c2ccncc2)o1,-1.5,9,-12,2%,-2,
Cn1c(=O)[nH]c(=O)c2c1nc(Br)n2Cc1ccccc1F,0.1,x,-7,58%,-2,
CCOC(=O)N1CCN(C(=O)CCCn2c(=S)[nH]c3ccsc3c2=O)CC1,x,-5,x,2%,-14,
CN1C2C=C(N(C(=O)c3ccc(Cl)cc3)c3ccccc3)CC1CC2 (centres undefined),-0.5,-1,-31,8%,-2,
COc1ccc(OC)c(N2C(N)=C(C#N)C(c3ccc(OC)c(O)c3)C3=C2CC(C)(C)CC3=O)c1 (centres undefined),-0.4,x,x,x,-3,
Cc1cc(C)c(C)c(OCC(=O)N2CCOCC2)c1,-4.2,-2,-13,-8%,-4,
O=C(Cc1ccccc1)NC1CCN(S(=O)(=O)c2ccc(C(=O)O)cc2)CC1,-3.2,1,1,-6%,4,
CC1Cc2ccccc2N1C(=O)CSc1nnc(Cc2ccccc2)n1CCc1ccccc1 (centres undefined),22,-38,1,x,x,
O=C1N(c2ccccc2)C(=Nc2ccccc2)SC12CC2,1.5,x,x,9%,-5,
CC(=O)OC[C@H]1O[C@@H](Sc2cccc3cccnc23)[C@H](OC(C)=O)[C@@H](OC(C)=O)[C@H]1OC(C)=O,-0.9,8,11,3%,-10,

# Reprinted at random: 2 compounds from above, in no set order.
SMILES,RecA splice inh,Arbovirus inh,YopH PTP inh,Mtb growth,Mtb bLac sens,others
CCN(CC)C(=O)CCSc1nnc(-c2ccncc2)o1,-1.5,9,-12,2%,-2,
O=C(NCc1ccccc1)C(c1ccc(F)cc1)N(Cc1cccs1)C(=O)c1cnccn1 (centres undefined),0.1,-2,-28,2%,-3,

# More structures follow.
SMILES,RecA splice inh,Arbovirus inh,YopH PTP inh,Mtb growth,Mtb bLac sens,others
Cc1c(OC(C)C(=O)NCC2CCC(C(=O)O)CC2)ccc2c1oc(=O)c1ccccc12 (centres undefined),0.6,x,x,x,-3,
Cc1cc(C)c2c(=O)[nH]n(C3CCCCCC3)c2n1,-3.1,0,x,-3%,-3,
COc1ccc(CCNC(=O)c2cc(-c3ccc(Cl)c(Cl)c3)oc2C)cc1,-4.8,0,-16,-3%,-2,
Nc1c(-c2ccccc2)c(CN2CCOCC2)nn1-c1ccccc1,0.8,6,-16,-9%,-2,
NCC(O)(c1ccc(Cl)cc1)c1ccc(Cl)cc1,3.0,-23,x,-2%,3,
CC(O)[C@H]1CNC(=O)C(=O)N1CC1(c2ccccc2)CC1 (some centres undefined),4.1,x,x,-3%,5,
CN1CCN(c2nc(-c3cccnc3)nc3ccccc23)CC1,-3.8,-11,-6,-4%,9,
COc1cc(C(=O)NCCCNc2ccc([N+](=O)[O-])cc2)cc(OC)c1OC,3.5,5,-13,4%,2,
COc1ccc(C#Cc2ccc3c(=O)c4ccccc4n(C)c3c2)cc1,-7.0,x,x,x,84,
CC(=O)c1c(C(C)=O)c(C)n(NC(=O)c2ccncc2)c1C,-1.1,4,-38,-1%,-4,
CN(C)CC(C)(C)CNS(=O)(=O)c1cccc2nsnc12,5.5,-2,-22,-1%,2,
CC(C)(O)[C@H](O)COc1c2occc2cc2ccc(=O)oc12,-0.3,1,-27,-11%,-9,
COCCCNC(=S)NNC(=O)c1cc(-c2ccncc2)nc2ccccc12,1.2,x,x,x,7,
Cc1c(NC(=S)NC(=O)c2ccc(COc3ccccc3)cc2)cccc1C(=O)O,1.7,x,x,x,-6,
O=C(OCCN=C1NS(=O)(=O)c2ccccc21)c1ccncc1,0.3,8,-22,-9%,0,
Cc1ccc(NC(=O)c2cccc3ccccc23)cc1,0.5,x,x,x,44,
COc1ccc(CNCC(O)(c2ccccc2)c2ccc(F)cc2)cc1OC (centres undefined),-1.9,x,x,x,-8,
Cc1cc(N2C(=O)C(O)=C(C(=O)c3ccco3)C2c2cccc(O)c2)no1 (centres undefined),-0.9,x,x,x,11,
O=[N+]([O-])c1ccccc1N=Nc1ccc(O)cc1,0.7,x,x,x,56,
CCc1nnc(NC(=O)CCNC(=O)c2ccccc2Cl)s1,x,5,x,3%,4,
CCN(CC)CCn1c2c(c(SCC(=O)Nc3ccc4c(c3)OCO4)nc1=O)CCC2,0.8,x,x,x,-9,
O=C(O)c1sccc1OCc1ccccc1,-2.2,12,x,5%,4,
COc1ccc(S(=O)(=O)N(C)CC(=O)N2CCCCC2)cc1Cl,-0.9,6,-2,-3%,-8,
COc1ccc(S(=O)(=O)N2CCC(C(=O)NCCCn3ccnc3)CC2)cc1C,-0.8,x,x,x,-4,
CCCCc1ccc(NC(=O)CSc2nnc(CNC(=O)c3ccco3)o2)cc1,3.3,x,x,x,95,
COC(=O)Cc1cccc2c(=O)c3ccccc3oc12,-0.5,x,x,7%,-9,
O=C(CSc1nnc(Cn2nnc3ccccc32)o1)N(Cc1ccc(Cl)cc1)c1ccccc1,12,5,-18,9%,3,
CCOC(=O)C1=C(C)n2c(s/c(=C/c3cccc([N+](=O)[O-])c3)c2=O)=NC1c1ccc(O)c(OC)c1 (centres undefined),35*,-38,-19,u,x,
CCOc1cc(C)ccc1OCc1nnc(SCC(=O)c2cccc([N+](=O)[O-])c2)n1C,1.2,1,-34,-9%,5,
Cc1cc(=O)[nH]c(SCC(=O)NCCOc2ccccc2)n1,0.5,4,-43,-6%,-4,Arbovirus inh repeat=-3
Cc1ccccc1NC(=O)Nc1nnc(Cc2ccc([N+](=O)[O-])cc2)s1,-5.3,-21,-25,6%,7,
COc1cc(NC(C)CCCN)c2ncccc2c1 (centres undefined),90*,x,x,x,98,
CCNC(=O)C/C(C)=N/NC(=O)C(=O)Nc1ccc(CC)cc1,-0.7,6,x,69%,88,
CS(=O)(=O)c1ccc2nc(NC(=O)c3ccco3)sc2c1,-3.0,-1,9,-4%,-2,Arbovirus inh repeat=4
Cc1ccc(/C=C/C(=O)O)cc1S(=O)(=O)N1CCc2ccccc2C1,-2.6,-1,x,1%,-1,
CCN(CC)S(=O)(=O)c1ccc2oc(C(=O)NCc3ccc(F)cc3)c(C)c2c1,x,1,1,6%,4,Arbovirus inh repeat=-2

# Of the compounds above, these contain fluorine:
SMILES,RecA splice inh,Arbovirus inh,YopH PTP inh,Mtb growth,Mtb bLac sens,others
COc1ccc(C)cc1NC(=O)CN1CCN(c2ccccc2F)CC1,x,2,-6,7%,96,
O=C(NCc1ccccc1)C(c1ccc(F)cc1)N(Cc1cccs1)C(=O)c1cnccn1 (centres undefined),0.1,-2,-28,2%,-3,
Cn1c(=O)[nH]c(=O)c2c1nc(Br)n2Cc1ccccc1F,0.1,x,-7,58%,-2,
COc1ccc(CNCC(O)(c2ccccc2)c2ccc(F)cc2)cc1OC (centres undefined),-1.9,x,x,x,-8,
CCN(CC)S(=O)(=O)c1ccc2oc(C(=O)NCc3ccc(F)cc3)c(C)c2c1,x,1,1,6%,4,Arbovirus inh repeat=-2

# The main list resumes, repeating the 3 entries before the break.
SMILES,RecA splice inh,Arbovirus inh,YopH PTP inh,Mtb growth,Mtb bLac sens,others
CS(=O)(=O)c1ccc2nc(NC(=O)c3ccco3)sc2c1,-3.0,-1,9,-4%,-2,Arbovirus inh repeat=4
Cc1ccc(/C=C/C(=O)O)cc1S(=O)(=O)N1CCc2ccccc2C1,-2.6,-1,x,1%,-1,
CCN(CC)S(=O)(=O)c1ccc2oc(C(=O)NCc3ccc(F)cc3)c(C)c2c1,x,1,1,6%,4,Arbovirus inh repeat=-2
O=C(NCCC1=CCCCC1)c1ccc2c(=O)n3c(nc2c1)CCCCC3,2.4,-7,-26,11%,8,Arbovirus inh repeat=-20
CCCc1nc(SCC(=O)N2c3ccccc3CC2C)c2c(C)c(C)sc2n1 (centres undefined),-3.4,20,-46,0%,2,
CCOC(=O)c1sc(NC(=O)C(CC)Sc2nccn2C)nc1C (centres undefined),-0.2,-2,-36,-2%,9,
CN1CCN(c2nnc(-c3ccc(F)cc3)c3ccccc23)CC1,0.3,x,x,x,-3,
N#CCN1CCN(CC(=O)c2ccc(Br)cc2)CC1,1.8,x,x,1%,-9,
CCCSc1nsc(NC(=O)CC)n1,-1.5,0,x,0%,3,
CCCCCn1c(=O)c(C(=O)NCc2ccc(Cl)cc2)c(O)c2ccccc21,0.6,x,x,x,33,
COc1cccc(-n2nc(C#N)c(Cl)cc2=O)c1,73*,-27,x,u,x,
Cc1ccc(-n2nnnc2SC(C)C(=O)Nc2ccccc2-c2ccccc2)cc1 (centres undefined),11,5,-34,0%,-3,
CNC(=O)c1ccccc1NC(=O)c1ccco1,-2.8,9,15,2%,-10,
COc1cc(/C=C2\SC(=S)N(CC(=O)NC(C)(C)C)C2=O)cc(OC)c1OC,2.8,-4,x,2%,x,
O=C(COC(=O)c1cc(=O)[nH]c2ccccc12)NC1CCCCCCC1,0.3,4,x,1%,-8,
O=c1[nH]c(CSc2ncnc3sc(-c4ccccc4)cc23)nc2ccccc12,-0.6,x,x,-14%,-4,

# From PubChem BioAssay
